Assay outcomes deposited in PubChem by National Center for Advancing Translational Sciences (NCATS).
2A firefly = FMDV 2A StopGo reporter, firefly signal | AID 1745856 | 120,000 tested, 0.23% active | Potency, µM (top dose mostly 57.5 µM), without a hit: at the top dose signal change, negative = less light | HEK cells with a luciferase reporter of 2A StopGo recoding; active = well fitted falling curve with a large enough effect; inconclusive = small, poorly fitted or top-dose-only effect; inactive = no such curve, though single readings can be large or run the other way; note: nearly all actives have a fitted effect of over 60% in size; overnight with compound
2A Renilla = lowers the Renilla signal of an FMDV 2A StopGo reporter; 120,000 tested, 0.32% active; Potency, µM (titrated, usually from 57.5 µM), for the others: at the highest dose signal change, negative = less light; HEK cells with a luciferase reporter of 2A StopGo recoding; active means well fitted falling curve with a large enough effect; inconclusive means small, poorly fitted or top-dose-only effect; inactive means no such curve, though single readings can be large or run the other way; note: nearly all actives have a fitted effect of over 55% in size; overnight with compound
The depositor's hits bear a star; ? = inconclusive; [ ] = another dose, or the depositor's remark. % is set by controls: 0 for no effect and ±100 for the full control effect; potency is the fitted concentration of half-maximal effect. Compounds were not picked by outcome (roughly 0.53% active in at least one column).

entry | compound | 2A firefly | 2A Renilla
1 | Cc1cc(C)n(-c2nc3ccccc3nc2N2CCN(C(=O)c3ccccc3F)CC2)n1 | 13% | 99%[activator]
2 | CC(Sc1ccccc1)C(=O)NC1CCCCC1 (stereo not given) | 26% | 17%
3 | COc1ccc(/C(C)=C(/C#N)c2nc3ccccc3[nH]2)cc1OC | 5% | ?
4 | CCc1oc2ccccc2c1C(=O)c1cc(Br)c(O)c(Br)c1 | 8%[11.5 µM] | 4%
5 | Brc1ccc(-c2noc(-c3ccc(Br)o3)n2)o1 | 174%[activator] | -9%
6 | Cc1ccc(C2C(C#N)=C(SCC(=O)Nc3cccc(Cl)c3)NC3=C2C(=O)CCC3)o1 (stereo not given) | 0% | 26%
7 | Cn1c(-c2ccccc2)c(C(=O)COC(=O)COc2cccc3c2OC(C)(C)C3)c2ccccc21 | -4% | 21%
8 | Cc1ccc(Cl)cc1NC(=O)Cn1c(=O)n(Cc2ccccc2)c(=O)c2oc3ccccc3c21 | -18% | -5%

New compounds follow.
entry | compound | 2A firefly | 2A Renilla
9 | CC(=O)Nc1cccc(C(=O)OCC(=O)NCc2cccs2)c1 | 81%[activator] | 8%
10 | Cn1nnnc1SCCCNCc1ccc(-c2ccc(Br)cc2)o1 | 5% | -12%
11 | COc1ccc(-c2csc3ncn(-c4ccc(Cl)cc4)c(=O)c23)cc1OC | 22% | 18%
12 | O=C(/C=C/c1cccc(Br)c1)c1ccc[nH]1 | 0% | -13%
13 | COc1cccc(N2CCN(C(=O)Cn3ncc4c5ccccc5n(C)c4c3=O)CC2)c1 | 37%[activator] | 23%
14 | COc1cccc(N2CCN(c3ncnc4c3nc3n4CCCCC3)CC2)c1 | ? | ?
15 | COc1cc(NC(=O)c2oc3c(c2C)-c2nn(Cc4cccc(Cl)c4)cc2CC3)cc(OC)c1 | 30%[activator] | 0%
16 | C=CCNC(=O)c1nc(-c2ccc3[nH]ccc3c2)no1 | 214%[activator] | 47%[activator]

Next records follow:
entry | compound | 2A firefly | 2A Renilla
17 | CC1CCN(S(=O)(=O)c2cc3cc(Cl)ccc3oc2=O)CC1 | -4% | -5%
18 | Cc1ccc(-c2nc(-c3ccccc3Br)no2)cc1 | 90%[activator] | -3%
19 | CC(OC(=O)c1ccc(O)cc1)C(=O)Nc1ccc2c(c1)OCO2 (stereo not given) | 54%[activator] | 17%
20 | CCN(CC)c1ccc(NC(=O)CCS(=O)(=O)c2ccc3c(c2)oc(=O)n3C)c(C)c1 | -8% | -4%
21 | OC(CN(Cc1ccccc1)Cc1ccccc1)c1ccc2cc[nH]c2c1 (stereo not given) | 0% | 0%
22 | Cc1cc(=O)[nH]c2nnc(SCc3ccc(Cl)cc3Cl)n12 | 0% | 83%[activator]
23 | O=C(CCc1ccc(F)c(F)c1)N1CC=C(c2c[nH]c3ncccc23)CC1 | -19% | -24%
24 | CN(CC(=O)Nc1ccc2c(c1)OC1(CCCCC1)O2)Cc1ccsc1 | -11% | 19%

The list goes on.
entry | compound | 2A firefly | 2A Renilla
25 | CC(Nc1oc(-c2ccc(COc3ccccc3)o2)nc1C#N)c1ccccc1 (stereo not given) | -10% | -1%
26 | CC(C)(C)c1ccc(C(=O)Nc2ccc3nc(SCC(=O)N4CCCC4)sc3c2)cc1 | ? | ?
27 | COc1ccc(C(=O)Nc2ccc(-c3nnc4n3CCCCC4)cc2)cc1 | 13% | 12%
28 | CCCSC1=NC2(CCN(C(=O)NC3CCCCC3)CC2)N=C1c1ccc(OC)cc1 | -20% | -3%
29 | COC(=O)c1ccn(-c2nc(-c3ccc(Cl)cc3)cc(C(F)(F)F)n2)n1 | -8% | -9%
30 | CCCCc1ccc(NC(=O)c2ccc3c(c2)CCN3S(=O)(=O)c2ccccc2)cc1 | -22% | 34%[activator]
31 | O=C(OCc1cccc(Br)c1)c1ccc(O)cc1 | 0% | 20%
32 | Cc1ccc(OCC(=O)Nc2c(NC3CCCC3)c3ccccc3oc2=O)cc1 | -3% | 26%

Next section:
entry | compound | 2A firefly | 2A Renilla
33 | CCN1CCN(C(=O)c2ccc(-n3nc(C)c(-c4ccc(F)cc4)c3NC(C)=O)cc2)CC1 | -10% | -19%
34 | CCOc1cccc2cc(S(=O)(=O)N3CCCC3)c(=O)oc12 | -16% | -24%
35 | COc1cccc(CN2CCc3nc(N4CCN(C)CC4)ncc3C2)c1 | -16% | -11%
36 | Cc1ccccc1NC(=O)Cn1cc(C(=O)c2cccs2)c2ccccc21 | 8% | 3%
37 | CCOc1ccccc1NC(=O)Cn1c(=O)n(Cc2ccccc2)c(=O)c2c(C)c(C(=O)N(C)C)sc21 | -19% | 3%
38 | O=C(Nc1cccc(-c2nc(-c3ccccc3)no2)c1)C1CC(=O)N(c2cccc(C(F)(F)F)c2)C1 (stereo not given) | 160%[activator] | 0%
39 | O=C(OCc1ccccc1F)c1cccc(S(=O)(=O)N2CCCCC2)c1 | 14% | 22%
40 | COCCN1CCN(S(=O)(=O)c2cccc3cc(C)cnc23)CC1 | 6% | -2%

Other compounds
entry | compound | 2A firefly | 2A Renilla
41 | COC(=O)c1ccc(Oc2c(C)oc3cc(OCc4ccccc4F)ccc3c2=O)cc1 | 22% | 6%
42 | Cc1ccc(NC(=O)c2csc3c2CCCCC3)cc1C | 196%[activator] | 13%
43 | COc1ccc(NC(=O)CN2CCCN(Cc3ccccc3)S2(=O)=O)cc1 | -22% | 12%
44 | CSc1ccc(CN2CCN(C(=O)COc3cccc(C)c3)CC2)cc1 | -31% | -6%
45 | Cc1ccccc1N=C/C(=C/Nc1ccccc1C)[N+](=O)[O-] | 0% | 18%
46 | CCONC(=O)COC(c1ccccc1)c1ccccc1 | 5% | 15%
47 | CCOc1ccc(/C=N/O)c(OC)c1 | 6% | 2%
48 | CCc1nn(CC(=O)NC2CC2)c(=O)c2cc3c(OC)cccc3n12 | 39%[activator] | 13%

Remaining list, next part:
entry | compound | 2A firefly | 2A Renilla
49 | Cc1cc(C)n2nc(C(=O)Nc3ccc(Cl)cc3C(=O)c3ccccc3F)nc2n1 | -12% | -13%
50 | CC(=O)Nc1ccc(S(=O)(=O)N2CCC(NC(=O)CCC3CCCCC3)CC2)cc1 | 0% | 51%[activator]
51 | Cc1cc(F)ccc1NC(=O)CCS(=O)(=O)c1cc2c3c(c1)CCN3C(=O)CC2 | -2% | -13%
52 | CCOC(=O)c1c(NC(=O)/C=C/c2ccc(OCC)cc2)sc(C(C)=O)c1C | -8% | -5%
53 | CN(CCC(=O)c1cccs1)CCC(=O)c1cccs1 | 2% | 3%
54 | CCc1nc(NCCOC)c(C#N)c2c1CCCC2 | -1% | 17%
55 | CC(C(=O)Nc1ccc(F)cc1)n1nnc2sc(-c3ccccc3)cc2c1=O (stereo not given) | 23% | 12%
56 | C=CCNCc1ccc(CC)cc1 | 3% | 12%

(further entries)
entry | compound | 2A firefly | 2A Renilla
57 | COc1ccc(CCNC(=O)c2ccc3c(c2)nc(C)n3-c2ccc(Br)cc2)cc1OC | -7% | -6%
58 | O=C(COc1ccc2c(=O)c(-c3ccccc3)coc2c1)Nc1cccc(Cl)c1 | -4% | -9%
59 | Cc1ccc(F)cc1NC(=O)c1nn(Cc2ccccc2)c(=O)c2ccccc12 | 17% | 5%
60 | COc1cc(CN(C(=O)c2cccc(NC(C)=O)c2)C2CC2)ccc1OC(F)F | 3% | 8%
61 | CCOc1ccccc1C1C(C#N)=C(N)OC2=C1S(=O)(=O)N(CC)c1ccccc12 (stereo not given) | 4% | -5%
62 | O=C(N/N=C/c1cccc(C(F)(F)F)c1)c1cccs1 | 244%[activator] | 0%
63 | CCc1cc(=O)oc2cc(C)cc(OCC(=O)NC3CC(C)(C)NC(C)(C)C3)c12 | -10% | 8%
64 | Cc1cc(SCC(=O)Nc2ccc(F)cc2)nc2ccccc12 | 9% | 7%

Carrying on:
entry | compound | 2A firefly | 2A Renilla
65 | COc1ccc(Cl)cc1NC(=O)CCCS(=O)(=O)c1nc(-c2ccc(OC)c(OC)c2)cc(C(F)(F)F)n1 | -19% | ?
66 | CC(=O)Nc1ccc(NC(=O)NC(C)C(C)C)cc1 (stereo not given) | 11% | -2%
67 | NC(=O)CCN(C(=O)c1ccc(C(F)(F)F)cc1)c1ccccc1 | 6% | -12%
68 | CN(CC(=O)Nc1ccc(F)cc1F)S(=O)(=O)c1cccc2nsnc12 | -12% | -3%
69 | CN1CCc2nc3sc(C(=O)Nc4ccccc4OC(F)(F)F)c(N)c3cc2C1 | -16% | -2%
70 | CC(=O)Nc1cccc(C(=O)NC2(c3ccc(F)cc3)CCC2)c1 | 17% | 21%
71 | CNS(=O)(=O)c1cn(CC(=O)Nc2ccc(C)c(N(C)C)c2)cc1S(=O)(=O)NC | -17% | 40%[activator]
72 | COc1ccc(OC)c(CCNC(=O)c2cc3c(-c4ccccc4F)nn(C)c3s2)c1 | ? | ?

Next entries.
entry | compound | 2A firefly | 2A Renilla
73 | COc1ccccc1N1CCN(S(=O)(=O)c2c(C)sc3ncn(CC(=O)Nc4ccc(C(C)C)cc4)c(=O)c23)CC1 | 2% | -10%
74 | CCOC(=O)c1cc(-c2ccccc2)n(CCC(=O)Nc2ccccc2CC)c1C | -12% | 11%
75 | O=C(Cc1ccc2c(c1)CCC2)OCc1ccc([N+](=O)[O-])cc1 | 6% | -6%[1.06 µM]
76 | Cc1cc(C(=O)OCC(=O)Nc2ccccc2F)c(C)n1C1CC1 | 200%[activator] | 13%
77 | CCOc1ccc(C2CCCN2C(=O)Cn2cccnc2=O)cc1 (stereo not given) | -4% | 1%
78 | COC(=O)c1cc2oc(C)cc2n1CC(=O)Nc1ccc(C(C)C)cc1 | 26% | -5%
79 | CCCCN(CC)CCCNC(=O)c1cn(CC(C)C)c(=O)c2c1c1ccccc1n2C | -25% | 8%
80 | CC(C)Cc1nnc(NC(=O)c2nn(Cc3ccccc3)c(=O)c3ccccc23)s1 | 22% | 24%

Next part
entry | compound | 2A firefly | 2A Renilla
81 | Cc1ccc2oc(-c3ccc(NC(=O)c4ccc(C)c([N+](=O)[O-])c4)cc3)nc2c1 | 20% | -3%
82 | O=C(/C=C/c1cccs1)c1ccc(O)cc1 | 131%[activator] | -3%
83 | COc1cc(NC(=O)CC2SCCNC2=O)cc(OC)c1OC (stereo not given) | 4% | -5%
84 | CCCn1c2ccccc2c2cnn(CC(=O)Nc3cc(C)c(Cl)cc3OC)c(=O)c21 | 26% | 11%
85 | O=C(c1ccc2c(c1)N(Cc1cccc(F)c1)C(=O)c1ccccc1S2)N1CCCC1 | 13% | 60%[activator]
86 | Cc1cccc(N2CCN(C(=O)c3nn(C)c4c3CSc3ccccc3-4)CC2C)c1 (stereo not given) | -12% | -2%
87 | CN(C)S(=O)(=O)c1cc(NC(=O)COC(=O)c2nn(C)c(=O)c3ccccc23)ccc1Cl | 21% | 8%
88 | COc1ccc(-c2nc3sc(CCNC(=O)C(=O)Nc4ccc(C)c(C)c4)c(C)n3n2)cc1 | 20% | -5%

Remaining list, next part
entry | compound | 2A firefly | 2A Renilla
89 | COc1cc(/C=C(\C#N)C(=O)Nc2ccc(OC(F)(F)F)cc2)cc(OC)c1OC | -9% | -4%
90 | COc1ccc(CCNC(=O)CCn2c(=O)c3cccn3c3ccc(F)cc32)c(OC)c1OC | -15% | 12%
91 | O=C(NCC12CC3CC(C1)CC(CNC(=O)c1ccc(Cl)cc1)(C3)C2)c1ccc(Cl)cc1 | 9% | 15%
92 | CCCCn1c(CNC(=O)c2ccc(OC)cc2)nnc1SCC(=O)Nc1ccc(OC)cc1 | -4% | 3%
93 | CCCCN(CCCNC(=O)c1cc(Nc2ccc(OC)c(OC)c2)nc2ccccc12)Cc1ccccc1 | -14% | -7%
94 | COc1ccc(-c2nc(C#N)c(N3CCN(Cc4ccccc4)CC3)o2)cc1OC | 16% | -23%
95 | COc1cccc(-c2nnc(SCC(=O)N(C3CCCCC3)C3CCS(=O)(=O)C3)n2C)c1 (stereo not given) | 0% | -13%
96 | CSc1ncc(C(=O)NCc2ccccc2)c(-c2ccccc2)n1 | 25% | ?

(more compounds)
entry | compound | 2A firefly | 2A Renilla
97 | CCc1cccc(CC)c1NC(=O)CSc1nc2ccccc2o1 | -7% | 1%
98 | N#C/C(=C/c1cccc(O)c1)c1nc2ccccc2o1 | 138%[activator] | 63%[activator]
99 | Cc1coc2cc3o/c(=N/O)c(Cc4ccccc4)c(C)c3cc12 | 11% | 0%
100 | Brc1ccc(-c2ccc(CNC3CN4CCC3CC4)o2)cc1 (stereo not given) | -2% | 3%
101 | CN(C(=O)C12CC3CC(CC(Cl)(C3)C1)C2)C1CCCCC1 | 12% | -4%
102 | O=C(NCC(c1ccccc1)c1c[nH]c2ccccc12)c1ccncc1 (stereo not given) | ? | ?
103 | O=C(NCC(=O)N1CCN(CCOc2ccccc2)CC1)c1ccc(N2CCCC2=O)cc1 | 4% | -2%
104 | CCc1ccc(-n2nc(C)c3c(C(=O)Nc4ccc(Cl)cc4)cc(C)nc32)cc1 | -23% | -6%

Next structures follow.
entry | compound | 2A firefly | 2A Renilla
105 | Cc1cc(C(=O)N/N=C/c2ccsc2)cs1 | 242%[activator] | 37%
106 | Cc1ccc(Cn2c(=O)n(Cc3ccco3)c(=O)c3oc4ccccc4c32)cc1 | -15% | 1%
107 | CCc1ccc(-n2nc(C)c3c(C)cc(=O)n(CC(=O)N4CCCc5ccccc54)c32)cc1 | 7% | -2%
108 | CC(C)Cc1nc(NCC2CCCO2)c(C#N)c2c1CCCC2 (stereo not given) | -2% | -1%
109 | Cc1ccc(S(=O)(=O)c2nc(S(=O)(=O)c3ccccc3)sc2NCCCOC(C)C)cc1 | -14% | 144%[activator]
110 | CC(NCc1ccc(-c2ccc(F)cc2)o1)c1ccccc1 (stereo not given) | 0% | -1%
